Screens: PubChem BioAssay, Vanderbilt University
GIRK2 act – activators of human GIRK2 potassium channels | HEK293-GIRK2 thallium flux, Thallos fluorescence | P48051 | AID 1259325 | hit rate 0.05% among 63,000 | calls only for hits at 25 µM;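 active = among the strongest 0.2% of first-round signals and kept after retests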;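 also: first round at about 10 µM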
Target sequence (P48051 whole entry, looked up): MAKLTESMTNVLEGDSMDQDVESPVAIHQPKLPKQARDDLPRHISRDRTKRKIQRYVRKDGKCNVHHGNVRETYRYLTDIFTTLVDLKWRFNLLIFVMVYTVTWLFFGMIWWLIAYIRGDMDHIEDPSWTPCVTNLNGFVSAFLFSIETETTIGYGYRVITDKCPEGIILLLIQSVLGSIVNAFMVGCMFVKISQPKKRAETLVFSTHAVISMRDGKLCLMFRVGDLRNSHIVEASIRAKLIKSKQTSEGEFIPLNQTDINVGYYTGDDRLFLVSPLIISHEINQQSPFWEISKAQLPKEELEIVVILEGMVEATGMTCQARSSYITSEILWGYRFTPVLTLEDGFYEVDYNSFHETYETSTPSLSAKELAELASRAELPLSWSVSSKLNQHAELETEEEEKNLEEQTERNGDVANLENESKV
Calls only; i = inactive. An excerpt. The share of hits here may be higher or lower than overall.

SMILES	GIRK2 act
COc1ccc(OC)c2[nH]c(=O)c(CCNC(=O)c3ccc(S(=O)(=O)N4CCCC4)cc3)cc12	i
O=C(Nc1cccc2cnccc12)c1ccc(S(=O)(=O)N2CCCCCC2)cc1	i
O=C(Nc1nccs1)C(=O)N1CCN(C(c2ccccc2)c2ccccc2)CC1	i
COc1cccc2cc(C(=O)N3CCC(Oc4nc5ccccc5s4)CC3)c(=O)oc12	i
CC(C)OC(=O)CCC/C=C\C[C@H]1C(=O)C[C@@H](O)[C@@H]1/C=C/[C@@H](O)COc1cccc(C(F)(F)F)c1	i
Cc1ccc(CNC(=O)CSc2nccnc2N2CCN(c3cccc(C)c3C)CC2)cc1	i
N#C/C(=C\c1ccc(-c2cc(Cl)ccc2Cl)o1)C(=O)Nc1cccc2ncccc12	i
COc1cccc(NC(=O)Cn2nc(NC(C)C)c(-c3nc(-c4ccc(Cl)cc4)no3)c2N)c1	i
CN(C)c1cccc(C(=O)N2CCC(CSc3nccn3C)CC2)c1	i
CCCCCCCC/C=C\CCCCCCCCC(=O)Nc1c(C(C)C)cccc1C(C)C	i
COc1ccc(/C=C2\Oc3c(ccc(OC(C)=O)c3C)C2=O)cc1	i
COc1cccc(-n2ccc(=O)c(-c3nc(-c4ccc(Br)cc4)no3)n2)c1	i
Cn1c(=O)c2c(nc(NC3CCCCC3)n2CC(O)COc2ccc(Cl)cc2)n(C)c1=O (configuration not stated)	i
Cn1nc(CNC(=O)c2ccc(OC(F)(F)F)cc2)cc1-c1ccco1	i
O=C(/C=C/c1ccc(O)c(O)c1)OC(Cc1ccc(O)c(O)c1)C(=O)O (configuration not stated)	i
O=C(NCC(O)C1CCCCC1)c1ccc(F)cc1Cl (configuration not stated)	i
Cc1ccc(-c2cc3c(=O)n(CC(=O)Nc4cccc(C)c4C)ccn3n2)cc1	i
CCOc1ccc(N(C)S(=O)(=O)c2ccsc2C(=O)Nc2ccc3c(c2)OCCO3)cc1	i
O=C(Nc1nc2c(s1)CN(C(=O)c1cc(-c3ccco3)on1)CC2)C1CCCO1 (configuration not stated)	i
CC[n+]1c(C)sc2ccc(Cl)cc21	i
CCCCn1c(-c2ccco2)nc2oc3ccccc3c(=O)c2c1=O	i
COCCn1nnn(-c2ccc(NC(=O)Cc3ccc(F)cc3)cc2)c1=O	i
COc1ccc(CNC(=O)c2sc(Nc3ccc(F)cn3)nc2C)c(OC)c1	i
Cc1nc(-c2ccccc2)sc1CNC(=O)Cc1ccccc1	i
CCCN1C(=O)CCc2cc(NC(=O)c3cc(OC)c(OC)c(OC)c3)ccc21	i
New compounds follow:
SMILES	GIRK2 act
COc1cc(N2C=C(C#N)S(=O)(=O)c3ccc(F)cc32)c(OC)cc1Cl	i
O=C(NCCCn1ncccc1=O)c1nnn(-c2ccc(OC(F)(F)F)cc2)n1	i
COc1ccccc1CNC(=O)c1sc(Nc2cccc(C)n2)nc1C	i
CCc1ccc2ncc(C#N)c(N3CCC(C(=O)NCc4ccc(OC)c(OC)c4)CC3)c2c1	i
COC(=O)/C=C(\C(=O)OC)N1CCN(C(=S)c2cccc(Br)c2)CC1	i
CN(C)CCNc1oc(-c2ccc(S(=O)(=O)N3CCCC3)cc2)nc1C#N	i
CC(C)(C)c1ccc(C(=O)N2CCC3(CC2)OCCS3)cc1	i
O=C(CNC(=O)c1c[nH]c2ccccc12)NCc1ccccc1Cl	i
COc1ccc(C2CCN(C(=O)c3ccccc3Cl)C2)cc1 (configuration not stated)	i
Cc1ccc(NC(=O)Cn2nc3c(Oc4ccccc4Cl)nccn3c2=O)cc1F	i
O=C1CC(c2nc3ccccc3n2Cc2ccccc2F)CN1Cc1ccccc1 (configuration not stated)	i
Cc1ccc(-c2csc3nnc(SCC(=O)Nc4ccc5c(c4)OCCO5)n23)cc1	i
Cn1nc(C(=O)N2CCCC(c3nnc(C(F)(F)F)o3)C2)ccc1=O (configuration not stated)	i
Cc1cccc(C)c1NC(=O)Cn1nc2c3cc(-c4ccc(F)cc4)nn3ccn2c1=O	i
CC(C)c1ccc(OCC(=O)Nc2cnoc2)cc1	i
O=C(CCc1csc(NC(=O)NC2CCCCC2)n1)NCc1cccs1	i
COc1ccccc1OCC#CCNS(=O)(=O)c1cccnc1	i
COc1cn(C)c(C(=O)NC(C)c2ccccc2)cc1=O (configuration not stated)	i
CN1C(=O)C(C)(C)COc2cc(NC(=O)NC(c3ccccc3)c3ccccc3)ccc21	i
O=C(c1ccccc1Br)N1CCN(Cc2nc3ccccc3[nH]2)CC1	i
Cc1ccc(Cl)cc1NC(=O)CN1CCN(S(=O)(=O)c2ccc(F)cc2)CC1	i
O=C(/C=C/c1ccc2c(c1)OCO2)N1CCN(S(=O)(=O)C2CC2)CC1	i
O=C(c1c[nH]c2ccccc12)N1CCN(C(=O)C2CC2c2ccc(F)cc2)CC1 (configuration not stated)	i
Cc1ccc(S(=O)(=O)N2CCOCC2)cc1[N+](=O)[O-]	i
Cc1cc(C)n(-c2cc(SCC(=O)Nc3cc(Cl)ccc3Cl)ncn2)n1	i
The list goes on.
SMILES	GIRK2 act
CC(=O)Nc1ccc(SCCCC(=O)NCCN2CCOCC2)nn1	i
COCCNS(=O)(=O)CCNC(=O)c1ccc2c(c1)OCO2	i
Cc1n[nH]c(=O)c2nn(-c3cccc(C(F)(F)F)c3)c(C)c12	i
O=C(NCC1CCN(Cc2ccccc2)CC1)Nc1ccccc1C(F)(F)F	i
COc1ccccc1OCC#CCNC(=O)C(c1ccccc1)c1ccccc1	i
COC(=O)N1CCC(CNC(=O)NCCc2ccccc2)CC1	i
COc1ccc(Cc2nnc(N(C)c3ccccc3)[nH]c2=O)cc1	i
O=C(Nc1nc2c(s1)CCc1ccccc1-2)Nc1c(F)cccc1F	i
Cc1nc(SCC(=O)Nc2ccc(F)cc2C)cc(-c2ccccn2)n1	i
O=C(Cc1noc2ccccc12)NCCc1ccncc1	i
COC(=O)Cn1c(=O)c2c(nc3n(-c4ccccc4OC)c(C)cn23)n(C)c1=O	i
COc1ccc(C(CNC(=O)c2ccccc2Br)N2CCOCC2)cc1 (configuration not stated)	i
NCCc1ccc(O)c(O)c1	i
O=C(c1cccc(-n2cnnn2)c1)N1CCCC(c2nnc(-c3cccs3)o2)C1 (configuration not stated)	i
Cn1nc(CNC(=O)C2(c3ccc(Cl)cc3)CCCC2)cc1-c1ccncc1	i
O=C(Nc1ccc2c(c1)C(=O)N1CCCCC1CCO2)c1nc2ccccc2s1 (configuration not stated)	i
O=C(NC(c1ccccc1)c1ccccc1)N1CCC(Oc2ccccn2)CC1	i
NS(=O)(=O)c1ccc(CCNC(=O)CN2CCN(c3ccc4c(c3)OCO4)C2=O)cc1	i
COC(=O)c1ccc(NC(=O)CN2CCc3[nH]c4ccccc4c(=O)c3C2)cc1	i
Cc1nn(C)c(C)c1S(=O)(=O)NCC1CCN(S(=O)(=O)C2CC2)CC1	i
CC(C)NC(=O)CSc1cc(NCc2ccc(Cl)cc2)ncn1	i
COCCSc1nc(-c2ccc(OC)cc2)cc(C(F)(F)F)c1C#N	i
CC(C)NCC(O)COc1ccc(CC(N)=O)cc1 (configuration not stated)	i
O=C(NCc1nc2ccccc2[nH]1)c1c2c(nn1C1CCS(=O)(=O)C1)CCC2 (configuration not stated)	i
O=C(NCc1ccco1)c1cccc(NS(=O)(=O)c2ccccc2F)c1	i

Quoted from the results shown for reference:
SMILES	GIRK2 act
CC(=O)Nc1ccc(SCCCC(=O)NCCN2CCOCC2)nn1	i
COCCNS(=O)(=O)CCNC(=O)c1ccc2c(c1)OCO2	i
Cc1n[nH]c(=O)c2nn(-c3cccc(C(F)(F)F)c3)c(C)c12	i
O=C(NCC1CCN(Cc2ccccc2)CC1)Nc1ccccc1C(F)(F)F	i
COc1ccccc1OCC#CCNC(=O)C(c1ccccc1)c1ccccc1	i
COC(=O)N1CCC(CNC(=O)NCCc2ccccc2)CC1	i
COc1ccc(Cc2nnc(N(C)c3ccccc3)[nH]c2=O)cc1	i

(list continues)
SMILES	GIRK2 act
COc1cccc(C(=O)CC2OC(=O)c3c2ccc(OC)c3OC)c1 (configuration not stated)	i
COc1ccccc1N1CCN(CCNC(=O)C(=O)Nc2cccc(SC)c2)CC1	i
O=C(CN1CCN(Cc2nc3ccccc3[nH]2)CC1)NCc1ccc(F)cc1	i
O=C(O)CCC/C=C\C[C@@H]1C(/C=C/[C@@H](O)COc2cccc(C(F)(F)F)c2)[C@H](O)C[C@@H]1O (some centres not stated)	i
CCOc1cccc(-c2noc(-c3ccc(CS(=O)(=O)c4ccc(C)cc4)o3)n2)c1	i
CCSc1nnc(NC(=O)c2cc(=O)c(OCc3cccc(OC)c3)cn2C)s1	i
Cc1ccc(NC(=O)C(=O)NCC2CCN(c3ncccn3)CC2)cc1N1CCCC1=O	i
COc1ccc(-n2nnc(-c3nc(-c4ccc(F)cc4)no3)c2N)cc1Cl	i
CCCCOC(=O)C1=C(C)N(C)C(=O)NC1c1ccccc1 (configuration not stated)	i
C[C@@H]1CC[C@]2(C(=O)O[C@@H]3O[C@H](CO)[C@@H](O)[C@H](O)[C@H]3O)CC[C@]3(C)C(=CCC4[C@@]5(C)C[C@@H](O)[C@H](O)[C@](C)(C(=O)O)C5CC[C@]43C)[C@@H]2[C@]1(C)O (some centres not stated)	i
Clc1ccc(CNc2cc(-c3ccccc3)ncn2)cc1	i
CC(C)NC(=O)CCn1c(=O)c2cc(Cl)ccc2n2c(SCc3cc(F)cc(F)c3)nnc12	i
CC(C)(CN)N1CCOCC1	i
O=C(Cn1cnc2c(-c3ccc(F)cc3)csc2c1=O)Nc1ccc(Br)cc1	i
COc1ccc(-c2ccc(=O)n(CCCC(=O)O)n2)cc1	i
COc1cccc(-c2csc(Cc3nc(-c4cccs4)no3)n2)c1	i
COC(=O)c1ccccc1N(C)C(=O)c1nc(SC)ncc1Cl	i
C=C(C)COc1ccc2c(=O)c(Oc3ccc(C(=O)OC)cc3)coc2c1	i
O=C(C1CCCN(c2ccc(-c3ccccc3)nn2)C1)N1CCOCC1 (configuration not stated)	i
CCN1CCC[C@H]1CNC(=O)c1c(O)c(Cl)cc(Cl)c1OC	i
CC(=O)NC1C(Oc2ccccc2C)OC2COC(C)(C)OC2C1O (configuration not stated)	i
CCCOc1ccc(CNC(=O)c2nnn(-c3ccc(C)cc3)c2-c2cccnc2)cc1	i
Cn1cc(CC(=O)Nc2cccc(N3CCCCC3=O)c2)c2ccccc21	i
CC(C)CCn1c(SCC(=O)c2ccccc2)nc2cc(C(=O)NCC3CCCO3)ccc2c1=O (configuration not stated)	i
Cc1csc(SCC2CCN(S(=O)(=O)CCN3C(=O)CCCC3=O)CC2)n1	i

Brought forward from above: 4 entries; new compounds follow.
SMILES	GIRK2 act
CCCOc1ccc(CNC(=O)c2nnn(-c3ccc(C)cc3)c2-c2cccnc2)cc1	i
Cn1cc(CC(=O)Nc2cccc(N3CCCCC3=O)c2)c2ccccc21	i
CC(C)CCn1c(SCC(=O)c2ccccc2)nc2cc(C(=O)NCC3CCCO3)ccc2c1=O (configuration not stated)	i
Cc1csc(SCC2CCN(S(=O)(=O)CCN3C(=O)CCCC3=O)CC2)n1	i
CCCS(=O)(=O)N1CCCc2ccc(NS(=O)(=O)c3cc(Cl)ccc3OC)cc21	i
CCOC(=O)CN(c1ccccc1)S(=O)(=O)c1cc(C)c2[nH]c(=O)cc(C)c2c1	i
COC(=O)c1ccc(S(=O)(=O)NCCc2cc(C)no2)cc1	i
N#C/C(C(=O)N1CCOCC1)=C1/SC=C(c2ccccc2)N1c1ccccc1	i
CC(=O)N1CCc2c(sc(NC(=O)CSc3ccc(C)cc3)c2-c2nc3ccccc3s2)C1	i
CCNC(=O)CCc1csc(NC(=O)Nc2cccc(Cl)c2)n1	i
CCS(=O)(=O)NCC1CCC(C(=O)Nc2ccccc2C)CC1 (configuration not stated)	i
C=C1C(O)CC2C(C(=O)O)=COC(OC3OC(CO)C(O)C(O)C3OC(=O)/C=C/c3ccc(O)cc3)C12 (configuration not stated)	i
Cc1cc(C(=O)NCC2CCN(C(=O)Oc3ccccc3)CC2)no1	i
COCC(C)NC(=O)CN(C)c1nc2c(F)cccc2s1 (configuration not stated)	i
O=C(NCCCn1ccnc1-c1ccccc1)c1c(F)cccc1F	i
CN(C)S(=O)(=O)c1ccc(C(=O)NCc2nn(C)c3c2CCCC3)cc1	i
COc1cccc(-n2nnc(C(N)=O)c2C)c1	i
O=C(c1ccco1)N1CCN(C(=O)C2CCCN(c3ccc(-c4ccc(F)cc4)nn3)C2)CC1 (configuration not stated)	i
COc1cc(C(=O)Nc2cc(C)nn2-c2nc(-c3ccc(C)cc3)cs2)cc(OC)c1OC	i
CSc1ccc(-c2noc(C3CCN(S(=O)(=O)c4cccs4)CC3)n2)cc1	i
CC(=O)c1cccc(NC(=O)Cn2nc(C)cc2C(=O)N2CCOCC2)c1	i
O=C(Nc1ccc(Cl)c2ncsc12)C1CCN(S(=O)(=O)c2cccs2)CC1	i
CN(C)CC1CSCCCN1S(=O)(=O)c1ccc(OC(F)(F)F)cc1 (configuration not stated)	i
COc1ccc(/C=C/c2nc(C#N)c(N3CCN(C(=O)c4ccccc4)CC3)o2)cc1	i
NC(=O)c1ccccc1NC(=O)c1nnn(-c2ccc(Cl)cc2)n1	i
COCCCn1c(SCc2nc(-c3ccccc3)no2)nc2cc3c(cc2c1=O)OCO3	i
CN1CCN(S(=O)(=O)c2ccc(NC(=O)c3ccc(S(=O)(=O)N4CCCC4)cc3)cc2)CC1	i
